FGF22 binding – binders of human FGF22 protein, primary screen, FGF22 synaptogenesis inhibitor project, biophysical, thermal shift, single point. Fibroblast growth factor 22 (Homo sapiens), Q9HCT0. recombinant FGF22 thermal shift, SYPRO orange fluorescence; percent of sucrose octasulfate shift, DMSO zero. calls only at 9.99 µM. actives 1.5% (n = 340,000);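 active = melting point raised past a set limit in the mean and every replicate; three in four hits are not shown here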
Target sequence (Q9HCT0 whole entry, looked up): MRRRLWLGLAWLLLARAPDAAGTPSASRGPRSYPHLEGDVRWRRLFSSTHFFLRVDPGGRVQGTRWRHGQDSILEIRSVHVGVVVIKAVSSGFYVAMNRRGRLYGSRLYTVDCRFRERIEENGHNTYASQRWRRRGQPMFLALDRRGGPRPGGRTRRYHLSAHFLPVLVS
AF4-AF9 inh – inhibitors of AF4 peptide binding to AF9, primary screen, biochemical, AlphaScreen, biotin-AF4 peptide, FLAG-AF9, single point; inhibition, % at 10 µM; actives 0.47% (n = 350,000); AID 651704, 2012;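 active = every replicate reaching a set inhibition limit, whatever the replicate mean, cut at about 25% in these data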;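 also: 0% = plate neutral control median and 100% = total signal loss; the record names both 10 and 1 µM as test concentration; the first replicate is given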
Target sequence (P42568 whole entry, looked up): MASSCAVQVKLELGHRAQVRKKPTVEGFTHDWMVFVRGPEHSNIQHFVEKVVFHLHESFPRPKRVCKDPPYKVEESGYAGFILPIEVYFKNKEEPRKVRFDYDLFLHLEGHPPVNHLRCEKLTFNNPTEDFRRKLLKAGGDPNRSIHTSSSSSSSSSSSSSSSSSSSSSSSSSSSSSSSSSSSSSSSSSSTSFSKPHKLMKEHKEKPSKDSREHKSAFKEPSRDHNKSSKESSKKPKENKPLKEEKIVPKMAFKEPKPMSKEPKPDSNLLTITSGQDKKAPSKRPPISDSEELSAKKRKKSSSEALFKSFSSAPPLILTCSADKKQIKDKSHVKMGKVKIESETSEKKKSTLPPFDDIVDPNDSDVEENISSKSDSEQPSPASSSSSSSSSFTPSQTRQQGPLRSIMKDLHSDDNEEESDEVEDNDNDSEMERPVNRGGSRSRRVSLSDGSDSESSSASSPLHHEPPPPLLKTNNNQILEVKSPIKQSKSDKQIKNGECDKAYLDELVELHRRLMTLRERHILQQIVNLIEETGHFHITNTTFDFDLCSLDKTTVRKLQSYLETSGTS
The depositor's hits bear a star; i = inactive.

compound	FGF22 binding	AF4-AF9 inh
O=C(Nc1ccc(C(F)(F)F)cc1)N[C@@H]1CC[C@H](CCn2cc(C3(O)CCCC3)nn2)O[C@@H]1CO	i	0.1
C[C@@H]1CN([C@H](C)CO)C(=O)Cc2cc(NC(=O)Cc3ccccc3)ccc2O[C@@H]1CN(C)C(=O)Nc1ccc(F)cc1	i	-1.1
CO[C@@H]1CN(C)C(=O)c2ccc(NC(=O)Nc3ccccc3Cl)cc2OC[C@H](C)NC[C@H]1C	i	4.3
COCC(=O)N(C)C[C@@H]1Oc2cc(-c3ccc(C)cc3)ccc2S(=O)(=O)N([C@H](C)CO)C[C@@H]1C	i	-1.1
C[C@H]1CN([C@@H](C)CO)C(=O)c2cccc(NC(=O)Nc3ccc(C(F)(F)F)cc3)c2O[C@@H]1CN(C)Cc1ccc(C(F)(F)F)cc1	i	-2.0
C[C@@H]1CN([C@H](C)CO)C(=O)Cc2cc(NC(=O)Cn3cnnn3)ccc2O[C@H]1CN(C)C(=O)NC1CCCCC1	i	-1.5
CO[C@H]1CN(C)C(=O)c2ccc(NS(=O)(=O)c3ccccc3C)cc2OC[C@@H](C)N(C)C[C@@H]1C	i	-2.8
O=C(C1=C[C@@H](c2ccc(C(F)(F)F)cc2)C[C@@H](OCc2ccc(CO)cc2)O1)N1CCCC1	i	-1.6
Cc1cccc(S(=O)(=O)N2CC[C@H]3[C@@H](CO)N(C)c4ccc(-c5cccc(C#N)c5)cc4[C@H]32)c1	i	-2.3
O=C(C[C@@H]1CC[C@@H]2[C@H](COC[C@H](O)CN2Cc2cccc(C(F)(F)F)c2)O1)NCCc1ccccc1	i	-11.3
CO[C@H]1CN(C)C(=O)c2ccc(NS(=O)(=O)C3CCCCC3)cc2OC[C@H](C)NC[C@@H]1C	i	-3.0
CS(=O)(=O)Nc1ccc2c(c1)[C@@H]1C[C@@H](CC(=O)NCc3ccccc3F)O[C@@H](CO)[C@@H]1O2	i	0.0
CNC[C@H]1Oc2c(NC(=O)NC3CCCCC3)cccc2C(=O)N([C@H](C)CO)C[C@H]1C	i	1.1
COc1ccc(NC(=O)N(C)C[C@@H]2Oc3c(NC(=O)C4CCOCC4)cccc3C(=O)N([C@H](C)CO)C[C@@H]2C)cc1	i	-1.1
O=C(Cc1ccccn1)NCC[C@H]1CC[C@@H](NS(=O)(=O)c2ccc(Cl)cc2)[C@@H](CO)O1	i	-1.6
C[C@H](CO)N1C[C@H](C)[C@H](CN(C)C(=O)C2CCC2)Oc2ncc(-c3ccccc3F)cc2C1=O	i	-1.2
COc1ccc(CN(C)C[C@H]2Oc3ccc(NC(=O)NC(C)C)cc3CC(=O)N([C@H](C)CO)C[C@H]2C)cc1	i	-3.2
CC(C)(C)[S@@](=O)N1Cc2cc(C(=O)N3CCc4ccccc4C3)nc(-c3cccc(-c4cccnc4)c3)c2[C@H]1CCO	i	-0.3
Cc1ccc(-c2cnc3c(c2)C(=O)N([C@@H](C)CO)C[C@H](C)[C@@H](CN(C)C(=O)Cc2ccccc2)O3)cc1	i	-0.1
CO[C@@H]1CN(C)C(=O)c2ccc(NC(=O)C3CCCCC3)cc2OC[C@@H](C)N(C(=O)c2ccccc2)C[C@@H]1C	i	0.6
CO[C@@H]1CN(C)C(=O)c2ccc(NC(=O)CC(F)(F)F)cc2OC[C@@H](C)N(C(=O)C2CCOCC2)C[C@@H]1C	i	-3.2
C[C@@H]1CN([C@H](C)CO)C(=O)c2cccc(NC(=O)CCCCCC(=O)Nc3ccccc3N)c2O[C@H]1CN(C)CC1CC1	i	-1.4
C[C@@H]1CN([C@@H](C)CO)C(=O)Cc2cc(NC(=O)C3CC3)ccc2O[C@H]1CN(C)Cc1ccncc1	i	-4.9
CCCC#Cc1cnc2c(c1)C(=O)N([C@@H](C)CO)C[C@H](C)[C@@H](CN(C)C)O2	i	-3.7
Cc1noc(C)c1S(=O)(=O)Nc1ccc2c(c1)C(=O)N([C@@H](C)CO)C[C@H](C)[C@@H](CN(C)Cc1ccncc1)OCCCC[C@H](C)O2	i	2.3

Ordered by the number under AF4-AF9 inh (high to low): some entries from above.
compound | AF4-AF9 inh
Cc1ccc(-c2cnc3c(c2)C(=O)N([C@@H](C)CO)C[C@H](C)[C@@H](CN(C)C(=O)Cc2ccccc2)O3)cc1 | -0.1
COCC(=O)N(C)C[C@@H]1Oc2cc(-c3ccc(C)cc3)ccc2S(=O)(=O)N([C@H](C)CO)C[C@@H]1C | -1.1
O=C(Cc1ccccn1)NCC[C@H]1CC[C@@H](NS(=O)(=O)c2ccc(Cl)cc2)[C@@H](CO)O1 | -1.6

As entered above:
For AF4-AF9 inh, C[C@@H]1CN([C@H](C)CO)C(=O)Cc2cc(NC(=O)Cc3ccccc3)ccc2O[C@@H]1CN(C)C(=O)Nc1ccc(F)cc1 is listed with -1.1
For AF4-AF9 inh, O=C(Nc1ccc(C(F)(F)F)cc1)N[C@@H]1CC[C@H](CCn2cc(C3(O)CCCC3)nn2)O[C@@H]1CO is listed with 0.1
For AF4-AF9 inh, Cc1ccc(-c2cnc3c(c2)C(=O)N([C@@H](C)CO)C[C@H](C)[C@@H](CN(C)C(=O)Cc2ccccc2)O3)cc1 is listed with -0.1

Later entries.
compound	FGF22 binding	AF4-AF9 inh
CO[C@H]1CN(C)C(=O)c2ccc(NC(C)=O)cc2OC[C@@H](C)N(C(=O)C2CCCCC2)C[C@H]1C	i	0.8
CN1[C@H](C(=O)NCC(F)(F)F)[C@@H](CO)[C@@H]2Cn3c(ccc(-c4ccc(F)cc4)c3=O)[C@@H]21	i	0.1
Cc1cccc(S(=O)(=O)N[C@H]2CC[C@@H](CCNC(=O)Nc3cc(F)ccc3F)O[C@H]2CO)c1	i	4.3
CCCNC(=O)C[C@H]1C[C@H]2c3cc(NC(=O)Nc4ccccc4F)ccc3O[C@H]2[C@@H](CO)O1	i	-8.7
CC(C)NC(=O)N1CCCCN2[C@H](CO)[C@@H](c3ccc(C#Cc4ccccc4F)cc3)[C@@H]2C1	i	-6.5
O=C(C[C@H]1C=C[C@H](NC(=O)Nc2ccc(C(F)(F)F)cc2)[C@H](CO)O1)NCCN1CCCC1	i	1.0
Cc1noc(C)c1S(=O)(=O)Nc1cccc2c1O[C@H](CN(C)C(=O)Nc1ccccc1)[C@H](C)CN([C@H](C)CO)C2=O	i	0.1
C[C@@H]1CN([C@@H](C)CO)S(=O)(=O)c2ccc(-c3cccnc3)cc2O[C@H]1CN(C)C(=O)C1CCCCC1	i	2.1
COCCOC(=O)N1C(=O)[C@@]2(c3cc(C#Cc4ccc(OC)cc4)ccc31)[C@H](C(=O)N1CCc3cc(OC)c(OC)cc3C1)[C@H]1C(=O)O[C@H](c3ccccc3)[C@H](c3ccccc3)N1[C@@H]2c1ccc(OCCO)cc1	i	-1.6
CC(C)NC(=O)Nc1ccc2c(c1)C(=O)N([C@H](C)CO)C[C@H](C)[C@@H](CN(C)Cc1ccc(C(=O)O)cc1)OCCCC[C@H](C)O2	i	-1.5
C[C@@H]1CN([C@@H](C)CO)C(=O)c2cc(C#Cc3ccc(F)cc3)cnc2O[C@@H]1CN(C)C(=O)c1ccccc1F	i	2.5
Cc1noc(C)c1S(=O)(=O)N(C)C[C@H]1Oc2ccc(NC(=O)NC(C)C)cc2CC(=O)N([C@H](C)CO)C[C@H]1C	i	0.2
C[C@@H]1CN([C@H](C)CO)C(=O)c2cc(C3=CCCC3)cnc2O[C@@H]1CN(C)C(=O)Cc1ccncc1	i	0.7
Cc1noc(C)c1NC(=O)Nc1ccc2c(c1)C(=O)N([C@@H](C)CO)C[C@H](C)[C@@H](CN(C)S(C)(=O)=O)OCCCC[C@H](C)O2	i	-2.5
O=C(c1cccc(F)c1)N1CCCCN2[C@H](CO)[C@H](c3ccc(C#CC4(O)CCCC4)cc3)[C@H]2C1	i	-5.6
CC(=O)N1Cc2cc(C(=O)NCc3cccc(F)c3)nc(-c3cccc(C4=CCCC4)c3)c2[C@@H]1CCO	i	2.3
Cc1ccccc1S(=O)(=O)N1CCCCN2[C@H](CO)[C@H](c3ccc(-c4cccc(F)c4)cc3)[C@@H]2C1	i	3.8
CCC(=O)N1C[C@@H](C)[C@@H](OC)CN(C)C(=O)c2ccc(NC(=O)C3CCCCC3)cc2OC[C@H]1C	i	0.5
C[C@H]1CN([C@@H](C)CO)C(=O)Cc2cc(NS(=O)(=O)c3ccccc3)ccc2O[C@@H]1CN(C)C(=O)Nc1cccc2ccccc12	i	-1.5
C[C@@H]1CN([C@H](C)CO)C(=O)c2cccc(NS(=O)(=O)c3cccs3)c2O[C@@H]1CN(C)C(=O)Nc1cccc2ccccc12	i	0.5
COc1ccccc1-c1ccc([C@@H]2[C@@H](C#N)N(C(=O)C3CCC3)[C@H]2CO)cc1	i	0.3
CCNC(=O)C[C@@H]1CC[C@H]2[C@H](COc3ccc(NC(=O)C4CCOCC4)cc3C(=O)N2C)O1	i	-0.9
C[C@@H]1CN([C@@H](C)CO)C(=O)c2cc(NC(=O)Nc3ccc(F)cc3)ccc2O[C@H]1CN(C)Cc1ccc(C(=O)O)cc1	i	-3.0
COc1ccc(S(=O)(=O)Nc2ccc3c(c2)[C@@H]2C[C@@H](CC(=O)O)O[C@@H](CO)[C@@H]2O3)cc1	i	-1.4
CN(C)C(=O)c1cccc(-c2ccccc2[C@@H]2[C@@H](C#N)N(C(=O)C3CC3)[C@H]2CO)c1	i	5.4

Overlap with the part before: 2 entries; new compounds follow.
compound	FGF22 binding	AF4-AF9 inh
COc1ccc(S(=O)(=O)Nc2ccc3c(c2)[C@@H]2C[C@@H](CC(=O)O)O[C@@H](CO)[C@@H]2O3)cc1	i	-1.4
CN(C)C(=O)c1cccc(-c2ccccc2[C@@H]2[C@@H](C#N)N(C(=O)C3CC3)[C@H]2CO)c1	i	5.4
CCCCc1cn(C[C@H](Cc2ccccc2)NC(=O)N[C@H](CO)CCc2oc(C(C)=O)c(C(=O)OC)c2C(=O)OC)nn1	i	-7.1
C[C@@H]1CN([C@@H](C)CO)C(=O)c2cc(C#Cc3ccncc3)cnc2O[C@@H]1CN(C)C(=O)CN(C)C	i	-7.3
COCC(=O)N1CCC2(CC1)CN(Cc1cccc(OC)c1)[C@@H](CO)c1[nH]c3cc(OC)ccc3c12	i	-2.0
C[C@H]1CCCCO[C@@H](CN(C)Cc2ccc(C(F)(F)F)cc2)[C@@H](C)CN([C@@H](C)CO)C(=O)c2cc(NC(=O)Nc3ccc(F)cc3)ccc2O1	i	0.9
C[C@H](CO)N1C[C@H](C)[C@H](CN(C)S(=O)(=O)c2cn(C)cn2)Oc2c(NC(=O)Nc3ccc(F)cc3)cccc2C1=O	i	-4.1
Cn1c(=O)oc2ccc(S(=O)(=O)Nc3ccc(Cl)cc3[N+](=O)[O-])cc21	i	1.0
O=C(C[C@H]1CC[C@H]2[C@@H](COC[C@@H](O)CN2S(=O)(=O)c2ccc(Oc3ccccc3)cc2)O1)NCCN1CCCCC1	i	4.6
C[C@@H]1CN([C@H](C)CO)C(=O)c2cccc(NC(=O)c3ccc(-c4nccs4)cc3)c2O[C@H]1CN(C)CC1CC1	i	11.4
C[C@H](CO)N1C[C@H](C)[C@H](CN(C)C(=O)Nc2ccccc2)Oc2ccc(NC(=O)Nc3cccc4ccccc34)cc2C1=O	i	2.6
CNC[C@H]1Oc2ccc(NS(=O)(=O)c3ccc(Cl)cc3)cc2C(=O)N([C@H](C)CO)C[C@H]1C	i	-5.0
COc1ccc(C(=O)Nc2ccc3c(c2)OC[C@H](C)NC[C@H](C)[C@H](OC)CN(C)C3=O)cc1	i	-2.1
COCC(=O)N(C)C[C@H]1Oc2ncc(-c3ccccc3OC)cc2C(=O)N([C@H](C)CO)C[C@H]1C	i	-21.3
COc1ccccc1S(=O)(=O)N1CC[C@@H]2[C@H]1c1cc(C#CC3CCCCC3)ccc1N[C@@H]2CO	i	4.1
COc1ccccc1-c1ccc2c(c1)O[C@@H](CN(C)CC1CCOCC1)[C@@H](C)CN([C@H](C)CO)S2(=O)=O	i	2.2
C[C@@H]1CN([C@@H](C)CO)C(=O)c2cc(/C=C/c3ccccc3)cnc2O[C@H]1CN(C)C(=O)c1cnccn1	i	-0.1
CCC(=O)Nc1ccc2c(c1)OC[C@H](C)N(Cc1ccccc1)C[C@@H](C)[C@H](OC)CN(C)C2=O	i	-7.8
O=C(C[C@@H]1C[C@@H]2c3cc(NC(=O)Nc4ccc(F)cc4)ccc3O[C@@H]2[C@H](CO)O1)NC1CCCC1	i	-0.5
O=C(C[C@H]1CC[C@H](NC(=O)CN2CCOCC2)[C@H](CO)O1)NC1CCC1	i	-2.3
COCC#Cc1cnc2c(c1)C(=O)N([C@@H](C)CO)C[C@@H](C)[C@@H](CN(C)C(=O)Nc1ccc(OC)cc1)O2	i	-0.7
CCC(=O)Nc1ccc2c(c1)C(=O)N(C)C[C@H](OC)[C@@H](C)CN(Cc1ccccc1OC)[C@H](C)CO2	i	-7.0
CS(=O)(=O)N1[C@@H]2c3ccc(-c4ccc(F)cc4)c(=O)n3C[C@H]1[C@H](CO)[C@H]2C(=O)N1CCOCC1	i	0.5
C[C@H]1CN([C@@H](C)CO)C(=O)c2ccccc2-c2ccccc2CO[C@H]1CN(C)C(=O)Nc1ccccc1	i	-4.9
Cc1ccc(S(=O)(=O)N(C)C[C@@H]2OCCCC[C@H](C)Oc3ccc(NS(=O)(=O)c4cn(C)cn4)cc3C(=O)N([C@@H](C)CO)C[C@@H]2C)cc1	i	3.8
C/C=C/c1ccc2c(c1)O[C@@H](CN(C)C(=O)NC1CCCCC1)[C@H](C)CN([C@H](C)CO)S2(=O)=O	i	1.4
COc1ccc(S(=O)(=O)Nc2cccc3c2O[C@@H](CN(C)Cc2ccc(Oc4ccccc4)cc2)[C@@H](C)CN([C@@H](C)CO)C3=O)cc1	i	1.4
COc1ccc(S(=O)(=O)N(C)C[C@H]2Oc3ccc(NS(C)(=O)=O)cc3CC(=O)N([C@H](C)CO)C[C@@H]2C)cc1	i	-3.0

Bioassay records (PubChem BioAssay)

A portion of the library. The share of hits here may be higher or lower than overall.
